Screening results from PubChem BioAssay.
Vif A3G: inhibitors of Vif binding to APOBEC3G peptide, primary screen, biochemical, TR-FRET, GST-Vif 1-94, biotin-A3G peptide, dose response retest (AID 1117319) | TR-FRET GST-Vif / biotin-A3G peptide binding; higher % means a stronger effect; test concentration not given here; strong numbers were not always called active | inhibition, %; hits with a dose series show IC50 in µM | 260,000 compounds, 0.57% hits;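 active = above the screen mean plus three standard deviations and confirmed in dose response; inconclusive = results disagree or hit not tested in dose response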;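 also: Vif residues 1-94 fused to GST binding biotinylated APOBEC3G peptide 110-148; 0% = full assay without inhibitor and 100% = GST in place of GST-Vif; retest series ran down from 100 µM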
AF4-AF9 inh: inhibitors of human MLL-AF4/AF9 interaction; P42568; AlphaScreen, biotin-AF4 peptide binding to FLAG-AF9; inhibition, % at 10 µM; 350,000 compounds, 0.47% hits;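 active = every replicate reaching a set inhibition limit, whatever the replicate mean, cut at about 25% in these data; inconclusive = mean inhibition reaches that limit but some replicates miss it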;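 also: 0% = plate neutral control median and 100% = total signal loss; the record names both 10 and 1 µM as test concentration; the first replicate is given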
Target sequence (P42568 whole entry, looked up): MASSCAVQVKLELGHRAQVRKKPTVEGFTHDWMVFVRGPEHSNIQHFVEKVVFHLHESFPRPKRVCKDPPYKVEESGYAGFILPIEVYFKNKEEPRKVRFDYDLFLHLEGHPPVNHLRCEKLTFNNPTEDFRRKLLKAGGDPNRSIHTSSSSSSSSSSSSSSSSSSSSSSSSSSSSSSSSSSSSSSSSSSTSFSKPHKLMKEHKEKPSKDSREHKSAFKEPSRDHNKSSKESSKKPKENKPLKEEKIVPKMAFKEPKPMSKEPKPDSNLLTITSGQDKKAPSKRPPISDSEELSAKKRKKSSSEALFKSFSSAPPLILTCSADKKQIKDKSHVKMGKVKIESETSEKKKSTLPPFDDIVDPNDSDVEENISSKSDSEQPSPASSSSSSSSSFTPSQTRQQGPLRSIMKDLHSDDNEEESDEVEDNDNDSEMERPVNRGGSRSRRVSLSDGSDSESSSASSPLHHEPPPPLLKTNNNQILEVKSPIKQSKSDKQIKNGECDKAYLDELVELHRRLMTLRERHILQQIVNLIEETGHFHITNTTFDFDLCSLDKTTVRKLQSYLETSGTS
HNF4A DNA FP: change in binding of human HNF4 alpha to DNA; P41235; HNF4a-FITC DNA binding, fluorescence polarization, 1 h; activity change, % at 10 µM; 360,000 compounds, 0.3% hits; AID 1224865; in the data active = activity change above about 30%, passing the limit was not always enough;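 also: controls were the assay level and a saturating level of protein; the project sought stronger binding though the title names inhibitors; some compounds called inactive have numbers as strong as hits; positive values seem to mean higher polarization but the record does not say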
FGF22 binding: FGF22 (human) thermal shift binding | Q9HCT0 | recombinant FGF22 thermal shift, SYPRO orange fluorescence; percent of sucrose octasulfate shift, DMSO zero | calls only at 9.99 µM | 340,000 compounds, 1.5% hits | AID 651658;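 active = melting point raised past a set limit in the mean and every replicate; inconclusive = no clear call; three in four hits are not shown here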
Target sequence (Q9HCT0 whole entry, looked up): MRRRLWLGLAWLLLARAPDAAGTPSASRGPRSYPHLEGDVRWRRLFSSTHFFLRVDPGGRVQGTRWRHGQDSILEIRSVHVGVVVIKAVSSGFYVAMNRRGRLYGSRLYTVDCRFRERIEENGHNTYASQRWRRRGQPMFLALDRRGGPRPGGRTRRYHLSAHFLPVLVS
RanGTP-Imp inh: disruptors of Ran-importin-beta complex formation – biochemical, FRET, CFP-Ran, YFP-importin-beta, homogeneous, primary screen | cell-free CFP-Ran/YFP-importin-beta FRET ratio | inhibition, % (concentration not given with the values) | 300,000 compounds, 1.1% hits | AID 2216;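 active = most replicates above 15%; inconclusive = exactly half above 15%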;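 also: 0% = DMSO wells and 100% = Ran loaded with GDP instead of GTP; wells of about 40 µL received 100 nL stock; the first replicate is given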
E coli growth: blocks Escherichia coli growth. OD600, 23 h; stronger effect = lower value. OD600 absorbance (test concentration not listed). 330,000 compounds, 0.21% hits. AID 1053175;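 active = OD600 absorbance below the run mean of sample wells minus 3.6 SD, in any replicate, cut at about 0.56 in these data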;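 also: stock transfer was 300 nL into about 60 µL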
UCH37 DUB inh: human UCH37 deubiquitinating enzyme inhibition; Q9Y5K5; purified proteasome/UCH37, Ub-AMC cleavage fluorescence; inhibition, % (no concentration beside the values); 330,000 compounds, 0.33% hits; AID 588478;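 active = mean of two replicates above 20%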;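 also: 0% = compound-free wells with enzyme and 100% = wells lacking proteasome; stock transfer was 100 nL into about 20 µL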
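Test system – human UCH37 enzyme supplied as purified proteasome complex · Incubation – 30 min preincubation with enzyme, 25 min cleavage at room temperature · Detection – AMC fluorescence from Ub-AMC cleavage, excitation 355 nm, emission 460 nm · Benchmarks – no-proteasome wells (full inhibition) and compound-free wells (no inhibition)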
Active calls of the source: *; i = inactive; ? = inconclusive; / = not tested or not shown.

Field names: A = Vif A3G; B = AF4-AF9 inh; C = HNF4A DNA FP; D = FGF22 binding; E = RanGTP-Imp inh; F = E coli growth; G = UCH37 DUB inh
O=C(NCCNc1ccc([N+](=O)[O-])cc1)c1ccccc1Cl
  A = 2%	B = 3.6	C = -0.1	D = i	E = /	F = /	G = /
Cc1ccc(C)c(N2CCN(S(=O)(=O)c3c(C)[nH]c(C)c3C(=O)N3CCCCC3)CC2)c1
  A = -3%	B = -3.5	C = -3.2	D = i	E = 3.6	F = 0.7	G = 5.7
O=c1c(O)c(-c2ccccc2)oc2cc(O)ccc12
  A = /	B = 0.1	C = 1.6	D = i	E = /	F = /	G = /
Cc1csc(N2CCc3ccccc32)n1
  A = -6%	B = /	C = 2.9	D = /	E = -2.1	F = 0.68	G = -0.8
O=C(CSc1ccccn1)N1CCN(c2ccc(Cl)cc2)CC1
  A = 20%	B = /	C = 2.6	D = /	E = 5.2	F = 0.7	G = 3.2
CC(C)(C)SCCNC(=O)CN(c1ccc(F)c(Cl)c1)S(C)(=O)=O
  A = -8%	B = /	C = 3.8	D = /	E = 0.8	F = 0.75	G = 1.7
COc1ccc(-c2ccc(CCC(=O)O)o2)cc1
  A = 5%	B = -6.1	C = -0.6	D = i	E = 1.8	F = 0.68	G = 0.3
CC(/C=N/NC(=O)c1cccc(F)c1)=C\c1ccccc1
  A = /	B = 0.0	C = 3.3	D = i	E = 2.0	F = /	G = /
CCOc1ccccc1C=C1SC(=S)NC1=O
  A = -10%	B = -3.1	C = 2.3	D = i	E = /	F = 0.65	G = 8.9
CCc1nc2c3cnn(-c4cc(Cl)ccc4C)c3ncn2n1
  A = 2%	B = /	C = -1.1	D = /	E = 1.8	F = 0.68	G = -1.0
Cc1nc2cc(-c3cccc(F)c3)nn2c(C)c1CCC(=O)NC(C)c1ccc2c(c1)OCCO2 (stereo unspecified)
  A = -4%	B = -6.4	C = -2.6	D = i	E = -2.7	F = 0.72	G = -6.0
O=C(O)c1ccccc1-n1ncc2c1/C(=C/c1ccc(Cl)cc1)CC2
  A = ?	B = 9.6	C = /	D = /	E = 7.6	F = 0.68	G = 4.7
CCC1CCC(c2nnc(-c3ccc([N+](=O)[O-])cc3)o2)CC1 (stereo unspecified)
  A = 4%	B = /	C = -4.3	D = /	E = 2.8	F = 0.67	G = 6.5
C=CCNc1nc(NCc2ccc(N(C)C)cc2)c2sc(-c3ccccc3)cc2n1
  A = /	B = 17	C = 0.4	D = i	E = /	F = /	G = /
CC(O)C(NS(=O)(=O)c1ccc(Cl)cc1)C(=O)OCCOc1ccc(F)cc1 (stereo unspecified)
  A = /	B = -0.9	C = 1.3	D = i	E = /	F = /	G = /

Two entries picked at random from those above, as already listed:
Field names: A = Vif A3G; B = AF4-AF9 inh; C = HNF4A DNA FP; D = FGF22 binding; E = RanGTP-Imp inh; F = E coli growth; G = UCH37 DUB inh
CC(C)(C)SCCNC(=O)CN(c1ccc(F)c(Cl)c1)S(C)(=O)=O
  A = -8%	B = /	C = 3.8	D = /	E = 0.8	F = 0.75	G = 1.7
O=C(O)c1ccccc1-n1ncc2c1/C(=C/c1ccc(Cl)cc1)CC2
  A = ?	B = 9.6	C = /	D = /	E = 7.6	F = 0.68	G = 4.7

Among those listed so far, two contain two or more sulfur atoms:
Field names: A = Vif A3G; B = AF4-AF9 inh; C = HNF4A DNA FP; D = FGF22 binding; E = RanGTP-Imp inh; F = E coli growth; G = UCH37 DUB inh
CC(C)(C)SCCNC(=O)CN(c1ccc(F)c(Cl)c1)S(C)(=O)=O
  A = -8%	B = /	C = 3.8	D = /	E = 0.8	F = 0.75	G = 1.7
CCOc1ccccc1C=C1SC(=S)NC1=O
  A = -10%	B = -3.1	C = 2.3	D = i	E = /	F = 0.65	G = 8.9

Continuation:
Field names: A = Vif A3G; B = AF4-AF9 inh; C = HNF4A DNA FP; D = FGF22 binding; E = RanGTP-Imp inh; F = E coli growth; G = UCH37 DUB inh
c1csc(-n2nc3ccccc3n2)c1
  A = -19%	B = /	C = 0.6	D = /	E = -0.7	F = 0.73	G = -1.4
CCc1nnc(NC(=O)c2ccco2)s1
  A = -2%	B = -0.7	C = 0.0	D = i	E = /	F = /	G = /
CC(C)(C)NC(=O)COC(=O)c1ccc(S(=O)(=O)N2CCCCCC2)cc1
  A = 2%	B = /	C = -1.2	D = /	E = 2.0	F = 0.74	G = 3.0
CCOC1(OCC)C(c2ccc(N)cc2)C(C#N)(C#N)C1(OCC)OCC (stereo unspecified)
  A = 5%	B = /	C = 2.7	D = /	E = -1.3	F = 0.71	G = 4.5
Cc1nnc(NC(=O)CSc2nnc(NC(=O)C(C)(C)C)s2)s1
  A = 22%	B = -2.7	C = 1.6	D = i	E = 1.9	F = 0.7	G = 2.0
C=CCNC(=S)NNc1nc(N2CCCC2)nc(N2CCCC2)n1
  A = /	B = -16	C = 0.7	D = i	E = -0.9	F = 0.67	G = -1.0
COC(=O)CCC(NC(=O)c1cc(C)oc1C)C(=O)OC (stereo unspecified)
  A = 3%	B = /	C = 0.8	D = /	E = -1.8	F = 0.69	G = -1.6
COc1ccc(CCNC(=O)CSc2ccc3nnc(CCNC(=O)c4ccc(C)cc4)n3n2)cc1OC
  A = -11%	B = -1.9	C = -3.7	D = i	E = 3.5	F = 0.69	G = 1.4
O=C(C1=C[C@@H](C2CC2)C[C@@H](OCCCCO)O1)N1CCN(Cc2ccccc2)CC1
  A = -13%	B = -2.9	C = -3.4	D = i	E = -2.0	F = /	G = 0.2
O=C(O)C1CCCN1C(=O)Nc1ccccc1 (stereo unspecified)
  A = 6%	B = /	C = 2.5	D = /	E = 0.2	F = 0.75	G = -0.3
Cc1ccc(S(=O)(=O)NCCNc2ccc(Br)c(C)c2)cc1
  A = /	B = 0.8	C = -6.5	D = i	E = /	F = 0.67	G = -0.4
CC1=NN(C(=O)Cc2ccc([N+](=O)[O-])cc2)C(O)(C(F)(F)C(F)(F)F)C1 (stereo unspecified)
  A = 4%	B = -1.0	C = -2.5	D = i	E = 0.9	F = 0.63	G = 4.9
c1ccc2c(c1)C(=NCC1CCCO1)NC2=NCC1CCCO1 (stereo unspecified)
  A = 10%	B = 2.7	C = -0.2	D = i	E = -4.4	F = 0.7	G = -11
CCOC(=O)c1sc2nccc(N(C)C)c2c1N=CNOCc1c(F)cccc1Cl
  A = ?	B = /	C = 1.0	D = /	E = 0.8	F = 0.74	G = -18
N#Cc1ccccc1Cn1c(=O)oc2ccccc21
  A = 2%	B = -12	C = 2.9	D = i	E = 6.9	F = 0.71	G = -1.1

Quoted from the listing:
Entry of `Cc1nnc(NC(=O)CSc2nnc(NC(=O)C(C)(C)C)s2)s1` under AF4-AF9 inh: -2.7
Entry of `O=C(O)C1CCCN1C(=O)Nc1ccccc1` (stereo unspecified) under E coli growth: 0.75
Entry of `COc1ccc(CCNC(=O)CSc2ccc3nnc(CCNC(=O)c4ccc(C)cc4)n3n2)cc1OC` under HNF4A DNA FP: -3.7
Entry of `C=CCNC(=S)NNc1nc(N2CCCC2)nc(N2CCCC2)n1` under AF4-AF9 inh: -16

4 compounds from above, arranged by the value under RanGTP-Imp inh, falling:
Field names: A = Vif A3G; B = AF4-AF9 inh; C = HNF4A DNA FP; D = FGF22 binding; E = RanGTP-Imp inh; F = E coli growth; G = UCH37 DUB inh
N#Cc1ccccc1Cn1c(=O)oc2ccccc21
  A = 2%	B = -12	C = 2.9	D = i	E = 6.9	F = 0.71	G = -1.1
CC1=NN(C(=O)Cc2ccc([N+](=O)[O-])cc2)C(O)(C(F)(F)C(F)(F)F)C1 (stereo unspecified)
  A = 4%	B = -1.0	C = -2.5	D = i	E = 0.9	F = 0.63	G = 4.9
CCOC(=O)c1sc2nccc(N(C)C)c2c1N=CNOCc1c(F)cccc1Cl
  A = ?	B = /	C = 1.0	D = /	E = 0.8	F = 0.74	G = -18
COC(=O)CCC(NC(=O)c1cc(C)oc1C)C(=O)OC (stereo unspecified)
  A = 3%	B = /	C = 0.8	D = /	E = -1.8	F = 0.69	G = -1.6

Later entries
Field names: A = Vif A3G; B = AF4-AF9 inh; C = HNF4A DNA FP; D = FGF22 binding; E = RanGTP-Imp inh; F = E coli growth; G = UCH37 DUB inh
CCOC(=O)c1sc(NC(=O)/C=C/c2ccccc2)nc1C
  A = -8%	B = -7.6	C = -1.2	D = i	E = -4.2	F = 0.74	G = -134
COc1ccc(C(=O)COC(=O)CCc2nc3ccccc3[nH]c2=O)cc1Br
  A = 4%	B = 0.1	C = 0.3	D = /	E = ?	F = 0.71	G = -2.6
O=C(Nc1ccc2ccccc2n1)c1ccccc1Br
  A = /	B = 1.1	C = -0.5	D = i	E = 2.7	F = 0.67	G = -0.9
C=CCNc1nnc(Cl)c2ccccc12
  A = 3%	B = -25	C = 0.0	D = i	E = 0.8	F = 0.69	G = -2.2
Cc1nn(Cc2c(F)c(F)c(F)c(F)c2F)c(C)c1NC(=O)c1cccc(COc2ccccc2Cl)c1
  A = 9%	B = /	C = 4.1	D = /	E = 3.9	F = 0.71	G = 3.9
COc1ccc(N2CC(C(=O)N/N=C/c3cc([N+](=O)[O-])ccc3O)CC2=O)cc1 (stereo unspecified)
  A = 4%	B = 0.9	C = 4.2	D = i	E = 2.6	F = /	G = /
Cc1ccccc1CNC(=O)c1ccccc1C(=O)O
  A = -6%	B = /	C = 21	D = /	E = 1.2	F = 0.68	G = 4.4
CCOC(=O)C1CN(S(=O)(=O)c2ccccc2)CCN1S(=O)(=O)c1ccccc1 (stereo unspecified)
  A = 2%	B = /	C = 3.1	D = /	E = 1.7	F = 0.72	G = 2.8

Only part of the results is shown; count on the stated rates, not on these rows.
